Source: PubChem (National Center for Advancing Translational Sciences (NCATS))
Rango-impB inh: prevents formation of the Rango-importin beta complex. Q14974. Rango CFP/YFP FRET sensor + importin beta, 45 min. Potency, µM (top dose mostly 92.2 µM), for inactives: at the top dose inhibition of complex formation. 0.031% of 340,000 active. AID 540263; active = rising FRET ratio curve, often small or poorly fitted; inconclusive = mostly compound fluorescence or quenching in the first reads; inactive = flat curves in all reads;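 note: potency is the fitted concentration of half-maximal effect; 0% = DMSO wells and 100% = buffer wells lacking importin beta; nearly all actives have a fitted effect of over 15% in size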
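FRET biosensor Rango (snurportin 1 IBB between N-terminal EYFP and C-terminal Cerulean), 50 nM in PBS/1 mM DTT/0.02% Tween-20/0.1% BSA, preincubated 5 min RT with compound; 0.125 microM importin beta added, 45 min RT, CFP/YFP FRET ratio read.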
Rango release inh: prevents RanGTP from dissociating the Rango-importin beta complex | 0.071% of 340,000 active | Potency, µM (titrated, usually from 46.1 µM), inactives show at the highest dose activity change, negative = inhibition | AID 540253 | O95149+P62826 | Biochemical FRET Rango-importin beta, RanGTP-induced dissociation; active means falling FRET ratio curve, often poorly fitted, with flat reads before Ran was added; inconclusive means other falling curves, or compound fluorescence or quenching; inactive means flat or rising ratio curve;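 note: potency is the fitted concentration of half-maximal effect; % of control where 0% means no effect; nearly all actives have a fitted effect of over 45% in size; -100% = wells without RanGTP and RCC1; the record marks most hits as doubtful in a second field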
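Rango/importin beta premix (0.1/0.25 uM final), PBS + 1 mM DTT + 0.02% Tween-20 + 0.1% BSA; cpd 5 min RT; FRET pre-read; + RanGTP-RCC1 (0.6 uM Ran, 2 mM GTP, 0.2 uM RCC1); 45 min RT; FRET post-read, ex 430, em 486/530 nm.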
miR-21 FLuc: raises the signal of a miR-21 reporter; HeLa miR-21 FLuc reporter, luciferase, 48 h; Potency, µM (top dose mostly 38.3 µM), without a hit: at the top dose reporter change, positive = more light; 340,000 tested, under 10 active; active = well fitted rising curve with a large enough effect; inconclusive = small, poorly fitted or top-dose-only effect; inactive = no such curve, though single readings can be large or run the other way;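 note: % of control where 0% means no effect; miR-21 action dims this reporter so a rising signal means less miR-21 action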
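HeLa miR-21-FLuc reporter line, endogenous miR-21; 2000 cells/well in DMEM/10% FBS; compound titration up to ~40uM final, 48 h, 37 degree Celsius; luciferase detection reagent, 15 min lysis, CCD luminescence.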
GLA inh pH 4.5: blocks human alpha-galactosidase A at pH 4.5 | purified enzyme, 4-MU-alpha-Gal fluorescence, pH 4.5 | activity change, negative = inhibition, % at 105 µM | 230,000 tested, under 10 active | AID 1467; inconclusive = small, poorly fitted or top-dose-only inhibition, or a rising curve; inactive = flat fitted curve, though single readings scatter; no compound was filed as active;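 note: 0% = full activity with enzyme and -100% = basal without enzyme; dose as in the result columns while the protocol names 77 µM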
Target sequence (P06280 whole entry, looked up): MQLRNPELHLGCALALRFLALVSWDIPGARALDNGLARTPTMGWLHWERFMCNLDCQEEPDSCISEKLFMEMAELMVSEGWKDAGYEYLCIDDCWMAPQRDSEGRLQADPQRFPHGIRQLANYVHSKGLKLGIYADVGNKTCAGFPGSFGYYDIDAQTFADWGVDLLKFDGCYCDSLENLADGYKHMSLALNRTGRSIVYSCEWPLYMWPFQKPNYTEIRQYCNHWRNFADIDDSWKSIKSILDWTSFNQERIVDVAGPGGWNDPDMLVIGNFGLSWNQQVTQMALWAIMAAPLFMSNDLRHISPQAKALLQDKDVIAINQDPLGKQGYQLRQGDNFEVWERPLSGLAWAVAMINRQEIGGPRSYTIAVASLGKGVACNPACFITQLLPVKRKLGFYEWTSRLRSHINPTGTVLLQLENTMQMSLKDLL
Active calls of the source: *; ? = inconclusive; · = not tested or not shown; & = joins results of further samples; [ ] = dose if it differs, or a comment.

Each structure is followed by: Rango-impB inh	Rango release inh	miR-21 FLuc	GLA inh pH 4.5
#1 CC(=O)N(C(C)=O)C1=C(C#N)C2(CCCCC2)Cc2ccccc21
  -0.2%	3.8%	10.0%	2.5
#2 O=C(NC(=S)NCc1ccco1)c1ccccc1
  -0.8%	0.0%	-3.0%	-0.2
#3 COC(=O)C1=C(C)Nc2nnnn2C1c1cc(OC)ccc1OC (stereo not given)
  3.1%	5.8%	-3.4%	0.9
#4 CC1CN(c2nc3c(c(=O)n(Cc4ccc(Cl)cc4)c(=O)n3C)n2C)CC(C)O1 (stereo not given)
  6.9%	14.1%	-3.3%	-6.4
#5 C/C(=N\NC(=O)c1ccccc1)c1ccc(N2CCCCC2)cc1
  -2.8%	-2.7%	-79.7%	-13.2
#6 COc1cc(NC(=O)c2n[nH]c(=O)c3ccccc23)cc(OC)c1
  4.0%	20.8%	-7.7%	0.8
#7 O=C(c1ccccc1)N1CCN(S(=O)(=O)N2CCOCC2)CC1
  -2.2%	0.2%	-2.6%	0.1
#8 Cc1ccc(/C(=N/Nc2ncnc3ccccc23)C(=O)O)cc1
  -0.2%	20.2%	-56.0%	·
#9 COc1cccc(NC(=O)CN2C(=O)NC(c3ccccc3)(c3ccccc3)C2=O)c1
  0.3%	20.4%	3.0%	·
#10 CC(=O)N1CCN(C(=O)CCNC(=O)c2ccc(Br)cc2)CC1
  -3.8%	?	·	·
#11 CCOc1ccc(C(=O)NNC(=O)c2cc(C)oc2C)cc1
  0.1%	6.4%	·	·
#12 CCOC(=O)C1CCN(S(=O)(=O)c2ccc(-n3cnnn3)c(C)c2)CC1
  1.5%	-20.7%	-1.2%	5.0
#13 Cc1ccc(C(=O)NCCCNCCCN(C)C)cn1
  3.7%	-8.4%	-2.6%	-1.4
#14 CN1CCC(N(C)CC(C)(C)NS(=O)(=O)c2ccccc2)CC1
  -3.2%	7.5%	-2.4%	-4.0
#15 Cc1ccc(OCCn2cnc(Cl)c2Cl)cc1
  0.8%	1.3%	-18.5%	4.5
#16 Cc1nn(-c2ccc(N3CCOCC3)nn2)c(C)c1CCC(=O)Nc1ccccc1
  -4.4%	3.1%	-28.4%	·
#17 CC1=CC(C)(C)N(C(=O)c2ccccc2)c2ccc(C)cc21
  ?	-0.2%	-0.9%	2.8
#18 CCN(CC)C(=O)[C@H]1C[C@H](CC(=O)NCC23CC4CC(CC(C4)C2)C3)C(=O)N2CCc3c([nH]c4ccc(Cl)cc34)[C@]12C
  10.9%	-8.6%	·	·
#19 O=C(Nc1ccc(F)cc1)C1CCCN(S(=O)(=O)c2cccc3cccnc23)C1 (stereo not given)
  4.6%	-28.2%	7.2%	4.7
#20 Cc1c(C)c2cc(Cl)c(O)c(CN3CCN(C)CC3)c2oc1=O
  ?	?	-2.3%	?

Going on with the list:
Each structure is followed by: Rango-impB inh	Rango release inh	miR-21 FLuc	GLA inh pH 4.5
#21 Cc1ccccc1NC(=O)CCOc1ccccc1
  ?	-7.2%	-33.3%&-58.1%	·
#22 Cc1ccc(S(=O)(=O)Nc2ccc(S(=O)(=O)N3CCOCC3)cc2)cc1
  -0.1%	1.3%	·	·
#23 COc1cccc(CNC(=O)CN2C(=O)CSc3ccc(S(=O)(=O)N4CCCCC4)cc32)c1
  -1.2%	10.4%	2.2%	·
#24 CC(C)c1ccc(NC(=O)c2cc(S(=O)(=O)N3CCCC3)c[nH]2)cc1
  0.2%	-12.7%	7.1%	·
#25 Cc1cc(C)n2nc(C(=O)Nc3ccc(N4CCOCC4)cc3)nc2n1
  -2.1%	2.2%	-6.9%	10.1
#26 Cc1nc2ccc(NC(=O)C3CCN(S(=O)(=O)c4cccs4)CC3)cc2s1
  ?	5.0%	-0.6%	-5.6
#27 O=[N+]([O-])C(/C=C(\Cl)[N+](=O)[O-])=C1N(Cc2ccc(Cl)nc2)CCN1Cc1ccc(Cl)nc1
  -5.6%	3.2%	6.6%	0.2
#28 CCn1c(COc2ccccc2C)nnc1SCC(=O)N1CCCCC1
  -0.3%	-9.3%	-14.1%	8.4
#29 CC1(C)CC(=O)C(CS(=O)(=O)c2ccccc2)=C(Cl)C1
  -3.7%	-8.4%	11.2%	·
#30 Cc1cc(NC(=O)COc2ccc(F)c(Cl)c2)no1
  0.8%	-3.1%	-4.1%	·
#31 O=C(NCc1ccccn1)C(=O)Nc1cccc2ccccc12
  -0.1%	10.5%	-15.6%	1.7[21.1 µM]
#32 CCCCCC(=O)N1CCN(CCN=CC2=C(O)CC(c3ccc(OC)c(OC)c3)CC2=O)CC1 (stereo not given)
  -2.8%&0.2%	-2.2%&4.2%	-0.6%	3.3
#33 Cc1cc(C(=O)NN=C2CCCC2)c2ccccc2n1
  0.4%	1.4%	·	·
#34 COc1ccc(CNC(=O)CN(Cc2ccccc2OC)C(=O)c2csnn2)cc1
  2.9%	-7.0%	14.3%	·
#35 CCN(c1ccc(NC(=O)COC(=O)c2ccc(S(=O)(=O)N3CCCC3)cc2)cc1)C(C)C
  0.2%	5.4%	1.5%	-8.0
#36 CCN1CCN(CC(=O)c2cc(Cl)ccc2Cl)CC1
  ?	-12.3%	4.8%	5.8
#37 CCCc1nc2sc3ccccc3c(=O)c2c(=O)n1Cc1ccccc1
  -0.3%	-14.1%	·	·
#38 c1ccc(-c2cnc(C3CCCCC3)o2)cc1
  2.7%	2.2%	·	·
#39 O=c1[nH]c(N2CCN(c3ccccc3)CC2)nc2c1CCCC2
  -1.2%	0.8%	-0.3%	7.7
#40 COc1ccc(-n2nc(C(=O)NCC(=O)N3CCCCCC3)c3ccccc3c2=O)cc1
  1.4%	15.4%	-23.5%	·

More results:
Each structure is followed by: Rango-impB inh	Rango release inh	miR-21 FLuc	GLA inh pH 4.5
#41 Cc1cc(C)c(OCC(=O)N(Cc2ccccc2)C2CCS(=O)(=O)C2)c(C)c1 (stereo not given)
  -0.5%	1.4%	-3.3%	·
#42 Cc1cc(C(=O)NP(=O)(N2CCOCC2)N2CCOCC2)c(C)n1-c1ccc(N(C)C)cc1
  -0.6%	-3.8%	-13.0%	-1.8
#43 COc1ccc(S(=O)(=O)NCC2CCCO2)cc1Cl (stereo not given)
  -4.8%	-8.8%	-4.9%	·
#44 COC(=O)c1sc(NC(=S)NC(=O)c2ccccc2Cl)nc1C
  ?	-8.6%	-43.2%	-1.6
#45 CCOC(=S)SCc1cn2cccc(C)c2n1
  ?	?	-12.0%	-9.4[21.1 µM]
#46 Cn1nnc(NC(=S)NC(=O)c2cccs2)n1
  -4.6%	23.1%	-8.8%	-2.7
#47 CCn1c(SCC(=O)OC)nnc1-c1c[nH]c2ccccc12
  1.2%	-2.5%	-11.0%	-1.7
#48 Nc1cccc2c3c(oc12)CCCC3
  -0.2%	3.2%	-14.5%	·
#49 CCOc1ccc(NS(=O)(=O)c2ccc3ncsc3c2)cc1
  -3.1%	2.3%	-1.4%	5.5
#50 CCN(CC)S(=O)(=O)c1ccc(Nc2cc(C)nc3ncnn23)cc1
  0.7%	-2.4%	4.0%	-8.7
#51 O=C(N/N=C/c1cc2cc3c(cc2nc1Cl)OCO3)c1ccncc1
  -0.5%	9.5%	-2.8%	6.4
#52 Cc1ccccc1NC(=O)CSc1nc(-c2ccccc2)cc(=O)[nH]1
  -3.5%	-15.3%	-2.3%	·
#53 CCOC(=O)c1c(NC(=O)CN2CCN(C(=O)C3CCCO3)CC2)sc(C)c1C (stereo not given)
  0.0%	5.2%	0.6%	·
#54 N#Cc1ccc(CSc2nnc(NC(=O)c3ccc(=O)[nH]c3)s2)cc1
  0.1%	-2.8%	-9.0%	-10.4
#55 Cc1ccc(N=C2CSC(=O)N2)cc1
  -1.1%	6.2%	-0.9%	-10.6
#56 CN1CCN(c2nc3ccccn3c(=O)c2/C=C(\C#N)S(=O)(=O)c2ccccc2)CC1
  ?	?	-0.4%	1.3
#57 CN1CCN(C(=O)C2(NC(=O)Nc3cccc(F)c3)CCCCC2)CC1
  1.5%	0.5%	-9.0%	-1.7
#58 CC1=NNC(=O)C1CCC(=O)N/N=C/c1ccco1 (stereo not given)
  -1.1%	3.3%	-0.4%	8.3
#59 Cn1c(Cc2csc(N)n2)nnc1SC/C=C/c1ccccc1
  3.6%	0.6%	-8.1%	1.4
#60 CCOC(=O)C1CCCN(Cc2cc(OC)c(O)c(OC)c2)C1 (stereo not given)
  1.2%	29.0%	-2.0%	6.9

Next section
Each structure is followed by: Rango-impB inh	Rango release inh	miR-21 FLuc	GLA inh pH 4.5
#61 Cc1ccc(NC(=O)NCc2ccncc2)cc1Cl
  7.0%	0.0%	-23.0%	3.0
#62 COc1ccc(CCN2CCC(Nc3nc4ccccc4n3Cc3ccc(F)cc3)CC2)cc1
  -2.8%	-2.0%	?	-18.8&-9.4&-7.7
#63 CCCCn1c(SCc2ccc(C(=O)OC)o2)nc2cc(S(N)(=O)=O)ccc21
  -0.2%	-0.2%	9.4%	5.0
#64 CCN1C[C@@H]2[C@@H]3C(=O)N(Cc4ccccc4)C(=O)[C@@H]3[C@](C)(C(=O)OC)N2C1=NC1CCCCC1
  3.9%	-3.1%	·	·
#65 c1ccc(-c2nc(NCc3cccs3)c3ccccc3n2)cc1
  0.8%	?	1.9%	·
#66 C=C(Br)CN1CCN(CC(=C)Br)CC1
  -2.6%	?	-0.3%	4.5
#67 CCNc1nc(SC(C(C)=O)C(C)=O)nc(N(C)C)n1
  3.5%	2.9%	-4.3%	-1.2
#68 O=C(NCCc1ccccc1)C1CCN(S(=O)(=O)c2ccccc2)CC1
  1.2%	-3.4%	-0.7%	3.8
#69 CC(=O)c1cccc(NC(=O)CSc2nnnn2C2CCCC2)c1
  -0.2%	13.2%	3.1%	·
#70 COCCCn1c(=O)c2ccccc2c2ccccc2c1=O
  -2.4%	11.1%	-1.6%	-15.0
#71 O=C(Cc1ccc(Br)cc1)OCC(=O)N1CCOCC1
  3.1%	-8.8%	·	·
#72 C=C(C)c1sc(-c2ccccc2)nc1C
  1.6%	0.2%	·	·
#73 Clc1ccc(Oc2nc3c(Cl)cccc3s2)cc1Cl
  1.9%	-12.3%	0.6%	1.2
#74 CC(=O)N(CN1C(=O)c2ccc([N+](=O)[O-])cc2C1=O)c1cccc(C(=O)O)c1
  -3.7%	20.4%	0.0%	11.0
#75 Cc1nc2ccc(NC(=O)c3cccc(S(=O)(=O)N4CC(C)OC(C)C4)c3)cc2s1 (stereo not given)
  ?	-41.6%	10.1%	-9.1
#76 CN(C)C(CNc1ncnc2ccccc12)c1c(F)cccc1Cl (stereo not given)
  -3.9%	3.9%	-4.4%	·
#77 CN(C)c1ccnc(Nc2ccc(F)cc2)c1C#N
  -1.0%	-0.8%	-6.3%	5.7
#78 CCOc1ccccc1NC(=O)COc1cccc(-n2cnnn2)c1
  0.9%	6.3%	-13.2%	-5.5
#79 O=S(=O)(Cc1cc(N2CCOCC2)nc(-c2ccccn2)n1)c1ccccc1
  0.8%	3.4%	12.8%	-1.3
#80 CC(=O)N1CCN(c2ccc(NC(=S)NC(=O)c3ccc(C)c([N+](=O)[O-])c3)cc2)CC1
  3.0%	-8.6%	3.8%	4.4

(continued)
Each structure is followed by: Rango-impB inh	Rango release inh	miR-21 FLuc	GLA inh pH 4.5
#81 Cn1c2ccccc2c2cc(C(=O)NNC(=O)CCl)sc21
  0.2%	0.1%	22.7%	-13.0
#82 CCc1nnc(NC(=O)CCC(=O)N2CCCC(O)C2)s1 (stereo not given)
  3.9%	-1.6%	2.5%	·
#83 Cc1[nH]c(=O)[nH]c(=O)c1S(=O)(=O)Nc1ccc(Cl)c([N+](=O)[O-])c1
  8.0%	-2.3%	-29.8%	·
#84 CCCc1nc(SCC(=O)c2ccc(F)cc2)c2ccccc2n1
  ?	?	1.9%	-7.3
#85 COc1ccc(C(=O)NCCn2cc(SCC(=O)NCc3ccco3)c3ccccc32)cc1
  0.9%	11.6%	13.4%	0.6

Look-ups from above.
compound 81 | GLA inh pH 4.5: -13.0
compound 85 | miR-21 FLuc: 13.4%

An excerpt; rates above refer to the full screens.
